Bioassay records (PubChem BioAssay)
Yeast UUG start: yeast start codon fidelity modulation | S. cerevisiae UUG-firefly luciferase reporter, luminescence/redox ratio | AID 602363 | hit rate 0.13% among 350,000 | activity score, % at 18.7 µM;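 active = replicate mean at a twofold rise or more, about +100% in these data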;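 note: firefly luciferase made from a UUG start codon reports start codon fidelity; reporter light over untreated wells divided by growth signal over untreated wells; some hits fall short of that in this replicate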
Numbers without * were called inactive.

no.	SMILES	Yeast UUG start
1	O=S(=O)(c1ccccc1)N1CCCCN2[C@H](CO)[C@H](c3ccc(-c4cncnc4)cc3)[C@H]2C1	-5
2	CCS(=O)(=O)Nc1ccc2c(c1)C(=O)N(C)[C@H]1CC[C@H](CC(=O)NCc3ccc(OC)cc3)O[C@H]1CO2	11
3	C[C@@H]1CN([C@H](C)CO)C(=O)c2cc(NS(=O)(=O)c3cn(C)cn3)ccc2O[C@H]1CN(C)Cc1ccc(Oc2ccccc2)cc1	-12
4	CCCC(=O)Nc1ccc2c(c1)OC[C@@H](C)N(Cc1ccccc1F)C[C@@H](C)[C@H](OC)CN(C)C2=O	14
5	CCCNC(=O)Nc1ccc2c(c1)OC[C@@H](C)N(C(=O)C1CC1)C[C@H](C)[C@@H](OC)CN(C)C2=O	3
6	Cc1cccc(S(=O)(=O)N2C[C@@H](O)COC[C@@H]3O[C@@H](CC(=O)NCc4ccc5c(c4)OCO5)CC[C@H]32)c1	11
7	C[C@H](CO)N1C[C@H](C)[C@H](CN(C)Cc2ccncc2)Oc2ccc(NS(=O)(=O)c3ccccc3)cc2CC1=O	-12
8	COc1ccc(CN(C)C[C@@H]2Oc3ccc(NS(=O)(=O)c4ccc(F)cc4)cc3CC(=O)N([C@@H](C)CO)C[C@@H]2C)cc1	-3
9	C[C@H]1CN([C@@H](C)CO)C(=O)c2cc(NS(C)(=O)=O)ccc2O[C@@H]1CN(C)C(=O)Nc1ccccc1	-17
10	CN(C)CC(=O)Nc1ccc2c(c1)[C@@H]1C[C@@H](CC(=O)N(C)C)O[C@@H](CO)[C@@H]1O2	62
11	CCCNC(=O)C[C@H]1C[C@@H]2c3cc(NC(=O)Nc4ccc(OC)cc4)ccc3O[C@@H]2[C@@H](CO)O1	0
12	CN1c2ccc(-c3ccc(C#N)cc3)cc2[C@H]2[C@H](CCN2C(=O)NC2CCCC2)[C@@H]1CO	-11
13	COc1cccc(C(=O)N2C[C@H]3[C@@H](c4ccccc42)[C@H](CO)N3Cc2ccccc2F)c1	-7
14	C[C@@H]1CN([C@@H](C)CO)C(=O)c2cc(NC(=O)CCCN(C)C)ccc2O[C@H]1CN(C)S(=O)(=O)c1ccc(F)cc1	-7
15	C[C@@H]1CN([C@H](C)CO)C(=O)c2cc(NC(=O)Cc3cn(C)c4ccccc34)ccc2O[C@H]1CN(C)Cc1ccc(Cl)c(Cl)c1	9
16	C[C@@H]1CN([C@H](C)CO)C(=O)c2cc(NC(=O)CCN3CCOCC3)ccc2O[C@@H]1CN(C)S(=O)(=O)c1ccccc1	6
17	CC(C)NC(=O)N(C)C[C@H]1Oc2ccc(NC(=O)Cc3cn(C)c4ccccc34)cc2C(=O)N([C@@H](C)CO)C[C@H]1C	5
18	C[C@@H]1CN([C@@H](C)CO)C(=O)Cc2cc(NC(=O)NC3CCCCC3)ccc2O[C@@H]1CN(C)Cc1ccc2c(c1)OCO2	19
19	O=S(=O)(c1ccc(F)cc1)N1CCCCN2[C@@H](CO)[C@H](c3ccc(C#CC4CCCC4)cc3)[C@@H]2C1	-6
20	COCC(=O)N1CCCCN2[C@H](CO)[C@H](c3ccc(C#Cc4ccc(OC)cc4)cc3)[C@H]2C1	24
21	C[C@@H]1CN([C@@H](C)CO)C(=O)c2cccc(NS(=O)(=O)c3ccc(Cl)cc3)c2O[C@H]1CN(C)C(=O)Nc1ccccc1	4
22	CC=Cc1ccc2n(c1=O)C[C@@H]1[C@@H](CO)[C@H](C(=O)NCC3CCCCC3)[C@H]2N1C(=O)CC (mixture of isomers)	8
23	C[C@@H]1CN([C@@H](C)CO)C(=O)c2cc(NS(=O)(=O)c3ccc(Cl)cc3)ccc2O[C@H]1CN(C)C(=O)Nc1ccc2c(c1)OCO2	9
24	C[C@@H]1CN([C@@H](C)CO)C(=O)c2cccc(NS(=O)(=O)c3ccc(F)cc3)c2O[C@H]1CN(C)S(=O)(=O)c1cccs1	7
25	Cc1cc(C(=O)Nc2cccc3c2O[C@H](CN(C)C(=O)Nc2ccc(F)cc2)[C@H](C)CN([C@H](C)CO)C3=O)n(C)n1	-3

Overlap with the part before: three compounds; new compounds follow.
no.	SMILES	Yeast UUG start
23	C[C@@H]1CN([C@@H](C)CO)C(=O)c2cc(NS(=O)(=O)c3ccc(Cl)cc3)ccc2O[C@H]1CN(C)C(=O)Nc1ccc2c(c1)OCO2	9
24	C[C@@H]1CN([C@@H](C)CO)C(=O)c2cccc(NS(=O)(=O)c3ccc(F)cc3)c2O[C@H]1CN(C)S(=O)(=O)c1cccs1	7
25	Cc1cc(C(=O)Nc2cccc3c2O[C@H](CN(C)C(=O)Nc2ccc(F)cc2)[C@H](C)CN([C@H](C)CO)C3=O)n(C)n1	-3
26	CC(C)C#Cc1ccc([C@H]2[C@@H](CO)N3CCCCN(C(=O)c4ccc5c(c4)OCO5)C[C@H]23)cc1	-5
27	COc1ccc(S(=O)(=O)N(C)C[C@@H]2Oc3ccc(NC(=O)CCN4CCOCC4)cc3C(=O)N([C@@H](C)CO)C[C@@H]2C)cc1	10
28	CC(=O)N1[C@@H](CO)[C@H](c2ccc(-c3cccc(F)c3)cc2)[C@@H]1CNC(=O)C1CC1	1
29	C[C@H](CO)N1C[C@H](C)[C@@H](CN(C)Cc2ccc(C(=O)O)cc2)Oc2c(NS(C)(=O)=O)cccc2C1=O	2
30	Cc1ccc(S(=O)(=O)N(C)C[C@H]2Oc3ccc(NC(=O)CCC(F)(F)F)cc3CC(=O)N([C@@H](C)CO)C[C@H]2C)cc1	17
31	CCC(=O)Nc1ccc2c(c1)OC[C@@H](C)N(C(=O)C1CCC1)C[C@H](C)[C@@H](OC)CN(C)C2=O	9
32	CCCNC(=O)NC[C@@H]1[C@@H](c2ccc(C3=CCCC3)cc2)[C@@H](CO)N1C(=O)CC	14
33	COc1ccc(NC(=O)Nc2ccc3c(c2)C(=O)N([C@@H](C)CO)C[C@H](C)[C@H](CN(C)C)O3)cc1	8
34	C[C@H](CO)N1C[C@H](C)[C@@H](CN(C)Cc2ccc3c(c2)OCO3)Oc2ccc(NC(=O)Nc3ccccc3)cc2C1=O	-10
35	CCC(=O)N1[C@H](CO)[C@@H](c2ccccc2)[C@H]1CN(C(C)C)S(C)(=O)=O	15
36	COc1cccc(-c2ccc3c(c2)[C@@H]2[C@@H](CCN2S(=O)(=O)c2ccccc2F)[C@@H](CO)N3C)c1	-21
37	COCC(=O)N1CC[C@@H]2[C@H]1c1cc(-c3cccc(OC)c3)ccc1N(C)[C@@H]2CO	3
38	C[C@H]1CN([C@@H](C)CO)C(=O)c2cccc(NC(=O)C3CCOCC3)c2O[C@@H]1CN(C)C(=O)Nc1ccccc1	-1
39	COc1ccc(-c2ccc3c(c2)[C@H]2[C@H](CCN2C(=O)C2CCCCC2)[C@H](CO)N3C)cc1	-7
40	C[C@H]1CN([C@@H](C)CO)C(=O)c2cccc(NC(=O)NC3CCCCC3)c2O[C@H]1CN(C)S(=O)(=O)c1ccc(Cl)cc1	-8
41	Cc1ccc(S(=O)(=O)N(C)C[C@@H]2OCc3ccccc3-c3ccccc3C(=O)N([C@@H](C)CO)C[C@H]2C)cc1	16
42	Cc1ccc(S(=O)(=O)N2CC[C@@H]3[C@H](CO)Nc4ccc(C#Cc5ccc(F)cc5)cc4[C@@H]32)cc1	-8
43	O=C(C[C@H]1CC[C@H]2[C@@H](COC[C@H](O)CN2Cc2ccccc2F)O1)N1CCc2ccccc2C1	32
44	O=C(c1ccccc1F)N1CC[C@@H]2[C@H](CO)Nc3ccc(Br)cc3[C@@H]21	-1
45	C[C@H]1CN([C@@H](C)CO)C(=O)CCCn2cc(nn2)CO[C@@H]1CN(C)Cc1ccc(C(=O)Nc2ccccc2N)cc1	1
46	C[C@@H]1CN([C@@H](C)CO)C(=O)c2cccc(NC(=O)c3ccncc3)c2O[C@@H]1CN(C)Cc1ccc(C(=O)O)cc1	7
47	O=C(C[C@H]1CC[C@H]2[C@@H](COC[C@@H](O)CN2S(=O)(=O)c2ccc(F)cc2)O1)NCc1ccc(Cl)c(Cl)c1	-1
48	CN1c2ccc(-c3cccc(F)c3)cc2[C@H]2[C@H](CCN2C(=O)Cc2ccccc2)[C@@H]1CO	-5
49	CC(C)NC(=O)N(C)C[C@@H]1Oc2ccc(NC(=O)Cc3cn(C)c4ccccc34)cc2C(=O)N([C@H](C)CO)C[C@@H]1C	11
50	COc1ccc(-c2ccc3c(c2)[C@@H]2[C@@H](CCN2C(=O)CN2CCOCC2)[C@@H](CO)N3)cc1	-8

(cont.)
no.	SMILES	Yeast UUG start
51	COc1ccc(C#Cc2ccc([C@H]3[C@H](CO)N4CCCCN(S(=O)(=O)c5ccccc5)C[C@@H]34)cc2)cc1	2
52	CCCNC(=O)NC[C@H]1[C@H](c2ccc(C3=CCCCC3)cc2)[C@@H](CO)N1C(C)=O	-4
53	CN(C)CC#Cc1ccc([C@@H]2[C@H](CO)N3CCCCN(CC4CCOCC4)C[C@@H]23)cc1	24
54	C[C@H](CO)N1C[C@H](C)[C@@H](CN(C)Cc2ccc3c(c2)OCO3)Oc2c(NS(=O)(=O)c3ccccc3)cccc2C1=O	2
55	CC(C)NC(=O)N1[C@@H]2CN(C(=O)Nc3ccc(Cl)cc3)c3ccccc3[C@@H]2[C@@H]1CO	-10
56	C/C=C/c1ccc([C@@H]2[C@@H](CO)N3CCCCN(C(=O)Nc4ccc(OC)cc4)C[C@H]23)cc1	20
57	CO[C@H]1CN(C)C(=O)c2cc(NC(=O)NC3CCCCC3)ccc2OC[C@H](C)N(C(C)=O)C[C@H]1C	5
58	COCC(=O)N1C[C@@H]2[C@H](c3ccccc31)[C@@H](CO)N2C(=O)C1CC1	-7
59	O=C(c1ccccc1)N1C[C@@H]2[C@H](c3ccccc31)[C@H](CO)N2C(=O)c1ccccn1	-4
60	C[C@@H]1CN([C@H](C)CO)C(=O)c2cc(NC(=O)Nc3ccc(F)cc3)ccc2O[C@@H]1CN(C)Cc1ccc2c(c1)OCO2	14
61	CCCNC(=O)N1[C@H](CO)[C@@H]2c3ccccc3N(C(=O)NC(C)C)C[C@@H]21	13
62	CO[C@H]1CN(C)C(=O)c2ccc(NC(C)=O)cc2OC[C@H](C)N(CC2CCCCC2)C[C@H]1C	-6
63	Cc1ccc(-c2ccc([C@H]3[C@@H](CO)N4CCCCN(C(=O)Nc5cccc(F)c5)C[C@@H]34)cc2)cc1	21
64	COc1cccc(NC(=O)C[C@@H]2CC[C@@H]3[C@H](COc4ccc(NC(=O)c5ccccc5F)cc4C(=O)N3C)O2)c1	11
65	CC(C)NC(=O)N(C)C[C@@H]1Oc2ccc(NC(=O)Nc3ccc4c(c3)OCO4)cc2C(=O)N([C@@H](C)CO)C[C@@H]1C	2
66	CC(C)NC(=O)N1C[C@@H]2[C@H](c3ccccc31)[C@@H](CO)N2C(=O)c1ccccn1	-3
67	CCCC#Cc1ccc([C@H]2[C@@H](CO)N3CCCCN(Cc4cccnc4)C[C@@H]23)cc1	-18
68	C[C@H](CO)N1C[C@H](C)[C@@H](CN(C)Cc2ccc3c(c2)OCO3)Oc2c(NC(=O)Nc3ccc(F)cc3)cccc2C1=O	-6
69	O=C(CN1CCOCC1)NC[C@@H]1N[C@@H](CO)[C@H]1c1ccc(-c2ccccc2)cc1	-9
70	COc1ccccc1C#Cc1ccc([C@@H]2[C@H]3CN(CCC(F)(F)F)CCCCN3[C@H]2CO)cc1	23
71	CN1c2ccc(-c3cccc(F)c3)cc2[C@@H]2[C@@H](CCN2S(=O)(=O)c2cccc(F)c2)[C@@H]1CO	1
72	CC(C)NC(=O)Nc1ccc2c(c1)CC(=O)N([C@@H](C)CO)C[C@H](C)[C@@H](CN(C)Cc1ccc(Oc3ccccc3)cc1)O2	-7
73	OC[C@H]1[C@@H](c2ccc(Br)cc2)[C@@H]2CN(Cc3ccccn3)CCCCN12	-32
74	Cc1ccc(S(=O)(=O)N(C)C[C@H]2Oc3ccc(NC(=O)NC4CCCCC4)cc3C(=O)N([C@H](C)CO)C[C@H]2C)cc1	-7
75	C[C@H]1CN([C@@H](C)CO)C(=O)Cc2cc(NC(=O)NC3CCCCC3)ccc2O[C@@H]1CN(C)S(=O)(=O)c1ccccc1	-5

Other structures follow:
no.	SMILES	Yeast UUG start
76	Cc1ccccc1S(=O)(=O)N1CCCCN2[C@@H](CO)[C@@H](c3ccc(-c4cccnc4)cc3)[C@@H]2C1	-8
77	COCC(=O)N1C[C@@H](C)[C@@H](OC)CN(C)C(=O)c2cc(NC(=O)c3cnccn3)ccc2OC[C@@H]1C	-7
78	CO[C@H]1CN(C)C(=O)c2cc(NC(=O)c3nc4ccccc4s3)ccc2OC[C@H](C)N(Cc2cccnc2)C[C@H]1C	-4
79	CCCNC(=O)NC[C@@H]1[C@H](c2ccc(C3=CCCC3)cc2)[C@@H](CO)N1C(C)=O	8
80	O=C(NCC1CC1)[C@@H]1[C@@H](CO)[C@@H]2Cn3c(cccc3=O)[C@H]1N2C(=O)c1cccnc1	5
81	C[C@H](CO)N1C[C@H](C)[C@H](CN(C)Cc2ccc(-c3ccccc3)cc2)Oc2ccc(NC(=O)c3ccncc3)cc2C1=O	17
82	O=S(=O)(c1ccc(F)cc1)N1CC[C@@H]2[C@H](CO)Nc3ccc(Br)cc3[C@@H]21	-7
83	C/C=C/c1ccc([C@H]2[C@H](CO)N3CCCCN(C(=O)Nc4ccc(F)cc4)C[C@@H]23)cc1	-1
84	CO[C@@H]1CN(C)C(=O)c2ccc(NC(=O)Nc3ccccc3F)cc2OC[C@H](C)N(Cc2ccccc2C(=O)O)C[C@H]1C	15
85	O=C(C1CCOCC1)N1[C@@H]2CNc3ccccc3[C@@H]2[C@@H]1CO	18
86	C[C@H](CO)N1C[C@H](C)[C@H](CN(C)C)Oc2ccc(NS(C)(=O)=O)cc2CC1=O	1

In the list so far, three have bromine:
no.	SMILES	Yeast UUG start
44	O=C(c1ccccc1F)N1CC[C@@H]2[C@H](CO)Nc3ccc(Br)cc3[C@@H]21	-1
73	OC[C@H]1[C@@H](c2ccc(Br)cc2)[C@@H]2CN(Cc3ccccn3)CCCCN12	-32
82	O=S(=O)(c1ccc(F)cc1)N1CC[C@@H]2[C@H](CO)Nc3ccc(Br)cc3[C@@H]21	-7

This is a subset (hit frequency here may not be typical).
